Sa helicase inh – S. aureus DNA helicase inhibition; purified S. aureus helicase, fluorescence unwinding assay; about half of the hits fall short of the stated cut; inhibition, %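 (tested at about 80 µM)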; actives 0.05% (n = 120,000); AID 485395;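 active = both duplicates at 50% or more, or one of them with a favoured structure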;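 also: 0% = mean of negative control wells and 100% = mean of positive control wells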
MgrA-DNA mod – S. aureus MgrA-DNA binding modulation; fluorescence polarization; inhibition, %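 (about 10 µg/mL by stock and volumes)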; actives 0.13% (n = 84,000); AID 602314;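 active = above 50% in either of two replicates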;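 also: 0% = protein plus DNA without compound and 100% = DNA alone without protein; higher means less MgrA bound to DNA so lower polarization; one replicate is shown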
* = called active by the depositor; / = no result given; & = joins results of further samples. An excerpt. The share of hits here may be higher or lower than overall.

item | mol | Sa helicase inh | MgrA-DNA mod
1 | O=C(O)C1CCN(C(=O)c2ccccc2)CC1 | 21 | -1.7
2 | CCc1ccc(N(C(=O)c2ccco2)C(C(=O)NC2CCCC2)c2ccncc2)cc1 (stereo not drawn) | 1 | -0.8
3 | CN1CCN(Cc2nc3ccccc3c(=O)n2CC#N)CC1 | -18 | /
4 | CCn1c(SC)nnc1C1CCN(CC(=O)Nc2ccccc2N2CCOCC2)CC1 | -1 | -1.5
5 | O=C1CCC(=O)N(c2ccccc2)N1 | / | 4.1
6 | CCOC(=O)c1c(CN(CC)CC)oc2ccc(O)cc12 | 8 | /
7 | CCOc1ccc(/C=C2\N=C(c3c(-c4ccccc4)noc3C)OC2=O)c(OC(C)=O)c1 | / | 0.8
8 | c1coc(-c2nnc3n2C2(CCCC2)Cc2ccccc2-3)c1 | 16 | /
9 | Cc1c(C(=O)N2CCN(c3ncccn3)CC2)oc2ccc(Cl)cc12 | 27 | /
10 | O=C(NCC(c1ccco1)N1CCCCC1)Nc1ccc(Cl)c(Cl)c1 (stereo not drawn) | 9 | /
11 | CC1=CC(C)C(/C=N/N=C(N)N)C(C)C1 (stereo not drawn) | -1 | 2.1
12 | Cc1c(N2C(=O)CSC2=S)c(=O)n(-c2ccccc2)n1C | 9 | -1.9
13 | CCN1C(=O)c2cccc3c(S(=O)(=O)NC4CC(C)(C)NC(C)(C)C4)ccc1c23 | 21 | /
14 | O=C(CNc1ccccc1C(=O)NCc1ccco1)Nc1ccc(N2CCOCC2)cc1 | 9 | /
15 | O=S(=O)(c1cccc2nsnc12)N1CCNCC1 | 1&0 | -2.0
16 | COc1ccc2c(C)nc(N=C(N)N)nc2c1 | -28 | /
17 | CCN(CC)CCn1c2ccccc2c2nc3cc(C(=O)O)ccc3nc21 | -4 | /
18 | NC(=O)CSc1ccc(-c2ccc3c(c2)OCO3)nn1 | 11 | /
19 | O=C(Cc1cccs1)NC(c1ccccc1)c1ccccc1 | 7 | -2.0
20 | Cc1ccc(NC(=O)CN2CCCC2c2cccn2C)cc1C (stereo not drawn) | 4 | /
21 | O=C(NCc1csc(-c2cccs2)n1)C1CCCCC1 | / | 2.1
22 | CCC1(c2cccc(OC)c2)CCCCN(C)C1=O (stereo not drawn) | / | -3.3
23 | Cc1nc(C)c(C(=O)OCC(=O)N(C)C)s1 | -5 | /
24 | COC(=O)COc1ccc(S(=O)(=O)Nc2ccc(C(F)(F)F)cc2)cc1 | 5 | 0.9
25 | Cc1cc(C)c2c(N)c(C(=O)NC(C)c3ccccc3)sc2n1 (stereo not drawn) | 5 | -0.5
26 | O=C(Nc1ccccc1)OCCSc1nc2ccccc2s1 | / | -8.2
27 | CCC(O)c1ccc(-c2ccccc2F)cc1 (stereo not drawn) | / | -1.2
28 | O=C(CC12CC3CC(CC(C3)C1)C2)NC1CCN(Cc2ccccc2)CC1 | / | 2.5
29 | Nc1ccc2oc(=O)ccc2c1 | 6 | /
30 | Nc1ncn([C@@H]2O[C@H](CO)[C@@H](O)[C@H]2O)c(=O)n1 | / | 1.4
31 | C=CCc1ccccc1OCC(O)CN1CCN(c2ccccc2OC)CC1 (stereo not drawn) | -3 | /
32 | O=C(Nc1ccc(-c2cn3c(n2)SCC3)cc1)c1ccco1 | / | 0.8
33 | O=c1ccc(-c2cccs2)n[nH]1 | 9 | 0.6
34 | FC(F)(F)c1cccc(NC(=S)NCc2ccncc2)c1 | / | 2.0
35 | O=S1(=O)CCC(N(CC2CCCO2)S(=O)(=O)c2cccs2)C1 (stereo not drawn) | 16 | /
36 | N#Cc1nc2c(C#N)c(N)n(CC3CCCO3)c2nc1C#N (stereo not drawn) | -9 | /
37 | O=c1c(O)c(-c2ccc(F)c(Oc3ccccc3)c2)oc2ccccc12 | 22 | -3.4
38 | COc1ccc(CCN(C)c2nc(N)c3c(N)nc(SCC(=O)O)cc3c2C#N)cc1OC | -18 | /
39 | CCOC(=O)N1CCN(C(=O)c2cccs2)CC1 | 0 | -0.4
40 | C=CCNc1nc(OC(C(F)(F)F)C(F)(F)F)nc(N2CCOCC2)n1 | / | 3.4
41 | CC(C)c1nnc2c3c4c(sc3ncn12)CCCC4 | 7 | /
42 | c1coc(-c2ccnc3nc(-n4cccc4)nn23)c1 | / | 0.1
43 | O=C(O)C1Cc2ccccc2-c2ccccc2C1 | / | 3.4
44 | O=C(CCC(=O)N1CCCCc2ccccc21)NC1CCCC1 | -13 | /
45 | Cc1nc2ccccn2c1P(=O)(N1CCCCC1)N1CCCCC1 | 4 | /
46 | O=C1c2ccc(-c3ncc(-c4ccccc4)o3)cc2C(=O)N1c1ncn[nH]1 | -3 | 1.8
47 | CCCc1cc(Br)c(-n2cccc2)c(Br)c1 | / | 1.3
48 | O=C(CSc1nc2c(c(=O)[nH]1)CSC2)c1ccc(Cl)cc1 | / | -0.1
49 | O=C(O)CCCNCc1cccc2ccccc12 | / | -0.9
50 | c1cnc2sc3c(N4CCOCC4)ncnc3c2c1 | -4 | /
51 | Nc1nnc(Sc2ccc(C(F)(F)F)cc2[N+](=O)[O-])s1 | / | -2.3
52 | CCOc1cc(S(=O)(=O)n2ccnc2)ccc1Br | -9 | -2.4
53 | O=C(O)CCCN1C(=O)/C(=C2\SC(=S)N(CCCC(=O)O)C2=O)SC1=S | 27 | 13
54 | O=C(NCCc1ccccc1)c1cc(-c2ccccc2)nc2ccccc12 | 19 | 0.5
55 | CCc1ccc(N2C(=O)CNC2=S)cc1 | 7 | /
56 | OCCNc1nc(N2CCOCC2)nc(N2CCOCC2)n1 | 0 | /
57 | Cc1ccccc1OCCSc1nnc(-c2ccc3c(c2)OCO3)o1 | -4 | /
58 | S=c1[nH]nc(CNc2ccc(I)cc2)n1-c1ccccc1 | 0 | 3.8
59 | O=C(Nc1ccc(OC(F)(F)F)cc1)OCCc1csc2ccccc12 | / | -0.7
60 | Fc1ccc(CSc2c[nH]c3ccccc23)cc1 | 9 | /

In the list so far, 3 have a cyano group:
item | mol | Sa helicase inh | MgrA-DNA mod
3 | CN1CCN(Cc2nc3ccccc3c(=O)n2CC#N)CC1 | -18 | /
36 | N#Cc1nc2c(C#N)c(N)n(CC3CCCO3)c2nc1C#N (stereo not drawn) | -9 | /
38 | COc1ccc(CCN(C)c2nc(N)c3c(N)nc(SCC(=O)O)cc3c2C#N)cc1OC | -18 | /

2 of these compounds in another layout.
Under each structure – Sa helicase inh, MgrA-DNA mod
(41) CC(C)c1nnc2c3c4c(sc3ncn12)CCCC4
    7, /
(42) c1coc(-c2ccnc3nc(-n4cccc4)nn23)c1
    /, 0.1

Other structures.
item | mol | Sa helicase inh | MgrA-DNA mod
61 | CCS(=O)(=O)NCC(c1cccnc1)N1CCN(c2ccccc2)CC1 (stereo not drawn) | 1 | /
62 | Fc1ccc(CNC(c2ccc(F)cc2)c2nnc(-c3ccccc3)o2)cc1 (stereo not drawn) | 9 | /
63 | CC1CCC(NC(=O)Cn2ncc3c2-c2ccccc2OC3)CC1 (stereo not drawn) | -10 | /
64 | C=CCOC(=O)COc1cc2oc(=O)c3c(c2cc1Cl)CCC3 | -1 | /
65 | CC(=O)Oc1cc(CO)cc(OC(C)=O)c1OC(C)=O | / | 7.4
66 | CC(C)(C)C(=O)OCc1nc(-c2ccc([N+](=O)[O-])cc2)cs1 | / | -0.9
67 | CC/C(O)=C(\C#N)c1nc2ccccc2n1C | 15 | -1.6
68 | COc1ccc(-c2noc(CCC(=O)N3CCCC3)n2)cc1 | 19 | /
69 | CC(C)CCNc1ncnc2onc(-c3ccc(Cl)cc3)c12 | -18 | /
70 | Cc1ccc2oc(=O)c3cnn(CC(=O)N4CCCc5ccccc54)c3c2c1 | 4 | /
71 | Cc1ccc2c(COC(=O)/C=C/c3ccc(Br)o3)cc(=O)oc2c1 | -8 | /
72 | CCn1nc(C)cc1C(=O)NN | / | 0.9
73 | S=c1[nH]nc(CSc2nc3ccccc3s2)o1 | 14 | /
74 | N#Cc1c(-c2cccnc2)cc2c(c1N)c(=O)oc1ccccc12 | -14 | /
75 | O=S(=O)(Nc1nc2ccccc2nc1NCCC1=CCCCC1)c1ccccc1 | 6 | 1.5
76 | NS(=O)(=O)c1ccc(N/C=C/C(=O)c2ccccc2)cc1 | / | 0.8
77 | O=C(Cn1c(C(F)(F)F)nc2ccccc21)OCc1nnc(-c2ccc(Cl)cc2)o1 | -19 | /
78 | COC(=O)c1ccccc1N=Cc1sc(=S)[nH]c1O | -23&2 | /
79 | Cc1cc(C(=O)Cn2cnc3ccsc3c2=O)c(C)n1CCc1ccc(F)cc1 | -15 | /
80 | O=C1NCCCC1c1n[nH]c(=S)n1Cc1ccccc1 (stereo not drawn) | -8 | /
81 | CN(C(=O)CSc1ccc(Cl)cc1)c1ccc(F)cc1F | / | 0.0
82 | COc1cccc(-c2nc3ccccc3c(=O)n2NC(=O)c2cc(OC)ccc2Br)c1 | / | 0.7
83 | CN=c1scc(-c2ccc(OC)cc2)n1/N=C/c1cc(Br)c(O)c(OC)c1 | 12 | /
84 | NS(=O)(=O)c1ccc(NC(=O)CCC(=O)c2ccc(F)cc2)cc1 | -4 | /
85 | CN(C(=O)COc1ccc2ccc(=O)oc2c1)c1ccccc1 | 0 | -1.8
86 | NCCCc1nc2cc3sc(CCCN)nc3cc2s1 | 7 | 14
87 | CCCCCOC(=O)C1=C(C)NC(=O)NC1c1ccc(OC)c(Br)c1 (stereo not drawn) | / | -0.4
88 | CC12CN3CC(C)(CN(C1)C(=O)c1ccccc1C3=O)C2=O | -27 | /
89 | CC(NC1CC(=O)N(C)C1=O)c1ccccc1 (stereo not drawn) | 24 | -1.9
90 | CCOc1ccc(C(=O)CCC(=O)N2CCN(C(=O)C3CC3)CC2)cc1 | -11 | /
91 | CC1=NS(=O)(=O)c2cc(Cl)ccc2N1 | / | 9.4&6.2&0.0
92 | CN(C)/C=N/c1cnc(C(=O)c2ccc(Cl)cc2)n1C | -5 | /
93 | CN(C)C(=O)c1ccc(-n2cnc3ccccc3c2=O)cc1 | 9 | -0.2
94 | CSc1nsc(SC)c1C(=O)NC(=O)Nc1ccc(Cl)cc1 | / | 0.3
95 | CC(=O)N(CCc1c(C)[nH]c2ccccc12)C(C(=O)Nc1c(C)cccc1C)c1ccc(Cl)cc1 (stereo not drawn) | 10 | 2.1
96 | CCOc1ccc(C(=O)c2nc3ccccc3s2)cc1 | -2 | 0.9
97 | O=C(O)Cc1nnn(C23CC4CC(CC(C4)C2)C3)n1 | 0 | -6.3
98 | CC(C)[C@H](N)c1nnc(SCC(=O)N(C)C)o1 | 2 | -3.3
99 | COc1ccc(CN2C(=O)CNC2=O)cc1 | -9 | /
100 | COc1ccc(CCNC(=O)c2ccc3nc(N4CCOCC4)sc3c2)cc1OC | 12 | /
101 | CC(C)c1ccc(NC(=O)CSc2ncn[nH]2)cc1 | -7 | -1.9
102 | Cc1cc(NCC(c2ccccc2)N(C)C)nc2ccccc12 (stereo not drawn) | -5 | /
103 | O=C(O)c1ccc(CNCCc2ccccc2)s1 | 8 | 2.7
104 | NC(=O)CSc1n[nH]c(COc2ccc(Cl)cc2)n1 | 35 | /
105 | COc1ccc(-c2cc(-c3ccccc3)n[nH]2)cc1 | 3 | -1.7
106 | CC(OC(=O)c1ncc(Cl)c(Cl)c1Cl)C(=O)N1CCOCC1 (stereo not drawn) | 28 | /
107 | O=C(c1cc2ccccc2o1)N1CCCC(c2nc3ccccc3s2)C1 (stereo not drawn) | 21 | /
108 | O=C(OCc1ccccc1)N1CCc2ccccc21 | 6 | -3.0
109 | O=S(=O)(Nc1nc2ccccc2nc1Nc1ccc2nsnc2c1)c1ccccc1 | -16 | /
110 | O=C(Cn1c(COc2ccccc2)nc2ccccc21)NC1=NCCS1 | -9 | /
111 | COc1ccc(C2CC(=O)C3=C(C2)Nc2ccccc2N(C(C)=O)C3c2ccc(OC)c(OC)c2)cc1 (stereo not drawn) | / | -1.2
112 | CCC(=O)Nc1c(C)n[nH]c1C | 4 | /
113 | O=C(OC(c1ccccc1)c1ccccc1)c1ccncc1 | 14 | /
114 | COc1cc(C(=O)OCC(=O)N(C)C2CCS(=O)(=O)C2)ccc1OCc1c(C)noc1C (stereo not drawn) | -5 | /
115 | COc1ccccc1C(=O)NC(C)C(c1cccs1)N1CCN(C)CC1 (stereo not drawn) | -1 | /
116 | CN(C)S(=O)(=O)c1cccc(COC(=O)c2nn(C)c(=O)c3ccccc23)c1 | 12 | /
117 | Cc1oc(-c2ccc(C(=O)N3CCCC3)cc2)nc1CS(=O)(=O)c1ccccc1 | 13 | /
118 | CCc1ccc(NC2CC(=O)N(c3ccccc3)C2=O)cc1 (stereo not drawn) | -14 | 2.4
119 | CCOc1ccc(-n2c(-c3ccc(OC)cc3)c[n+]3c2CCCCC3)cc1 | 0 | -0.4
120 | COc1ccc(CCCc2n[nH]c(=S)o2)cc1 | 8 | -1.0

3 entries from above, arranged by their value in MgrA-DNA mod, ascending:
no.	SMILES	MgrA-DNA mod
120	COc1ccc(CCCc2n[nH]c(=S)o2)cc1	-1.0
119	CCOc1ccc(-n2c(-c3ccc(OC)cc3)c[n+]3c2CCCCC3)cc1	-0.4
94	CSc1nsc(SC)c1C(=O)NC(=O)Nc1ccc(Cl)cc1	0.3

Next section:
item | mol | Sa helicase inh | MgrA-DNA mod
121 | O=C(O)CSc1ccc(Oc2ccc(SCC(=O)O)cc2)cc1 | -2 | 6.2
122 | O=C(NC(=S)Nc1ccc(-c2nc3ccccc3o2)cc1)c1ccc(F)cc1 | 9 | 2.7
123 | CCC(C)C(C(=O)Nc1ccc(N2CCOCC2)cc1N1CCOCC1)c1ccccc1 (stereo not drawn) | -14 | /
124 | CCn1c(C)nc2cc(S(N)(=O)=O)ccc21 | 5 | /
125 | CC(C)C1Cc2c(sc3c2c(=O)n(CCc2ccccc2)c2n[nH]c(=S)n32)CO1 (stereo not drawn) | 7 | 1.2
126 | CC(CC(=O)Nc1ccccc1)n1cccn1 (stereo not drawn) | 13 | /
127 | Cc1ccc(NS(=O)(=O)c2cccc(C(=O)OC3CCOC3=O)c2)cc1 (stereo not drawn) | -8 | /

Values by screen from the list:
Entries 51 to 57 in Sa helicase inh, in turn: /, -9, 27, 19, 7, 0, -4
